Screens as filed in PubChem.
NS1 function inh – qHTS Assay for Inhibitors of Influenza NS1 Protein Function. Potency, µM (titrated, usually from 46.1 µM), inactives show at the top dose activity, positive = more growth. S. cerevisiae slowed by influenza A NS1, growth recovery by OD600. 0.4% of 270,000 active; active means well fitted rising curve with a large enough effect; inconclusive means small, poorly fitted or top-dose-only effect; inactive means no such curve, though single readings can be large or run the other way; also: nearly all actives have a fitted effect of over 50% in size
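OD600 was taken as the measure of yeast growth restored by compound in an NS1-expressing S. cerevisiae strain. Cells had been washed out of glucose medium and diluted 1:100 into galactose -URA medium, pH 6.0.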
2A StopGo – High Throughput Screening for Foot and Mouth Disease Virus Antivirals; Potency, µM (titrated, usually from 57.9 µM), without a hit: at the top dose signal change, negative = less light; human cells with a luciferase reporter of 2A StopGo recoding; control for the full effect not named in the record; AID 1159524, 2015; 1.2% of 410,000 active; active = well fitted falling curve with a large enough effect; inconclusive = small, poorly fitted or top-dose-only effect; inactive = no such curve, though single readings can be large or run the other way; tested in HEK293T cells; also: % is scaled to controls: 0 for no effect and ±100 for the full control effect; nearly all actives have a fitted effect of over 45% in size; luciferase light after 4 h
Cruzain inh Det – qHTS Assay for Promiscuous and Specific Inhibitors of Cruzain (with detergent) | purified cruzain, Z-FR-AMC fluorescence, 0.01% Triton | Potency, µM, for inactives: max response, negative = inhibition, hits mostly inhibitors | 0.43% of 200,000 active | AID 1478, 2009;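 also: plate controls were neutral wells for no effect and buffer without enzyme for full effect; nearly all actives have a fitted effect of over 40% in size; top concentration of the series not given in the record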
Target sequence (P25779 123-467 limits assumed): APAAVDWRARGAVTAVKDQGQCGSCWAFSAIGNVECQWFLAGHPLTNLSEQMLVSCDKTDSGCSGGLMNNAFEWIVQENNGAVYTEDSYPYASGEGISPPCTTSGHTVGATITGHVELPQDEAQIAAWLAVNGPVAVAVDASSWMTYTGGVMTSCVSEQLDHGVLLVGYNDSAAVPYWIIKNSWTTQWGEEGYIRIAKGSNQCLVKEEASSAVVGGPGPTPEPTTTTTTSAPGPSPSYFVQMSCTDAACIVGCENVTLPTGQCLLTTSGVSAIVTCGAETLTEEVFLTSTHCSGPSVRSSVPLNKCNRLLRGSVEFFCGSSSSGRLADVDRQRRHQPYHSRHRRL
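Steps: dispense cruzain (1.5 nM final) in acetate buffer pH 5.5 with DTT and 0.01% Triton X-100; pin-transfer compounds; incubate 15 min RT; add Z-FR-AMC (2 uM final); read fluorescence every 30 s, using the 60 s intensity change.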
SARS PLP yeast – qHTS of Yeast-based Assay for SARS-CoV PLP. S. cerevisiae expressing SARS-CoV PLpro, growth rescue; control for the full effect not named in the record. Potency, µM (series often up to 32.9 µM), without a hit: at the highest dose activity, positive = growth rescue. 0.19% of 330,000 active; active means well fitted rising curve with a large enough effect; inconclusive means small, poorly fitted or top-dose-only effect; inactive means no such curve, though single readings can be large or run the other way; also: 0% is about no effect; nearly all actives have a fitted effect of over 55% in size; growth read by luminescence after 48 h
LASV entry inh – qHTS for Inhibitors of binding or entry into cells for Lassa Virus; Lassa virus pseudotype entry inhibition, cell reporter; control for the full effect not named in the record; Potency, µM (series often up to 37.9 µM), for the others: at the highest dose activity change, negative = inhibition, most hits filed as inhibitors; 1.2% of 300,000 active; active means well fitted inhibition curve with a large enough effect; inconclusive means small, poorly fitted or top-dose-only effect, or effect the other way; inactive means flat fitted curve, though single readings scatter; tested in HEK293 cells; also: % is scaled to controls: 0 for no effect and ±100 for the full control effect; nearly all actives have a fitted effect of over 50% in size; luciferase read-out
MARV entry inh – qHTS for inhibitors of binding or entry into cells for Marburg Virus; Marburg virus pseudotyped entry inhibition, cell reporter; control for the full effect not named in the record; about a third of the inactives were read at about 46 µM; 1.8% of 300,000 active; AID 540276, 2011; Potency, µM (doses to about 37.8 µM), for the others: at the top dose activity change, negative = inhibition, actives largely listed as inhibitors; active = well fitted inhibition curve with a large enough effect; inconclusive = small, poorly fitted or top-dose-only effect, or effect the other way; inactive = flat fitted curve, though single readings scatter; tested in HEK293 cells; about a fifth of its hits are not listed in these tables; also: % is scaled to controls: 0 for no effect and ±100 for the full control effect; luciferase read-out
RE007 growth inh – qHTS Assay for Inhibitors of the HIV-1 protein Vpr; S. pombe RE007 Vpr strain, BacTiter-Glo ATP luminescence, 24 h; control for the full effect not named in the record; Potency, µM (doses to about 92.2 µM), inactives show at the highest dose activity change, negative = less growth; 0.21% of 360,000 active; AID 651644, 2012; active = well fitted falling curve with a large enough effect; inconclusive = small, poorly fitted or top-dose-only effect; inactive = no such curve, though single readings can be large or run the other way;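 also: % is scaled to controls: 0 for no effect and ±100 for the full control effect; nearly all actives have a fitted effect of over 50% in size; the assay follows cell death caused by Vpr and the record does not say whether a fall means rescue or toxicity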
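Fission yeast strain RE007, carrying one chromosomally integrated HIV-1 vpr copy, was seeded at OD 0.01 in PMG+AL medium with 23 nL pinned compound. After 24 h at 30 °C and 99% humidity, viability was read by BacTiter-Glo luminescence.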
Cruzain noTriton – qHTS Assay for Promiscuous and Specific Inhibitors of Cruzain (without detergent). Cruzipain (Trypanosoma cruzi), P25779. purified cruzain, Z-FR-AMC fluorescence, no detergent. Potency, µM, for the others: max response, negative = inhibition, usual class: inhibitors. 2.3% of 200,000 active;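 also: plate controls were enzyme without inhibitor for no effect and buffer without enzyme for full effect; nearly all actives have a fitted effect of over 40% in size; top concentration of the series not given in the record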
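Detergent-free condition (0.00005% Triton X-100) in acetate buffer pH 5.5 with DTT. 1.5 nM enzyme and compound were pre-mixed 15 min, then 2 uM Z-FR-AMC substrate added; reaction progress from fluorescence change between first and third reads (60 s).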
Starred values were filed as active, the others as inactive; & = joins results of further samples; [ ] = remark or other dose. Unless noted, calls follow the shape of the dose curve; as a rule, active = well fitted curve in the direction sought with a large enough effect; inconclusive = small, poorly fitted or top-dose-only effect, or another doubt; inactive = no such curve, though single readings can be large; an effect the other way counts as inactive or inconclusive. Potency is read from the fitted curve at half-maximal effect.

Screening O=C(/C=C/c1cccs1)Nc1nc(-c2ccccc2)cs1 returned NS1 function inh 14%, 2A StopGo -47%, Cruzain inh Det -2.9%, SARS PLP yeast -1%, LASV entry inh 8%, MARV entry inh inconclusive, RE007 growth inh 6% and Cruzain noTriton inconclusive.
`O=C(NCCn1cc(SCc2ccc(F)cc2)c2ccccc21)c1c(F)cccc1F` gave NS1 function inh 1%, 2A StopGo inconclusive, Cruzain inh Det -3.7%, SARS PLP yeast -9%, LASV entry inh -5%[46.1 µM], MARV entry inh inconclusive, RE007 growth inh -15% and Cruzain noTriton -4%.
COc1ccc2c(c1)CC1c3c(cc4c(c3-2)OCO4)CC[N+]1(C)[O-] (stereo not drawn) was read as NS1 function inh 3%, 2A StopGo -15%, SARS PLP yeast 0% and RE007 growth inh 0%.
`CCC(=O)Nc1nc(C)c(Oc2ccccc2)c(=O)[nH]1` gave NS1 function inh -2%, 2A StopGo -6%, Cruzain inh Det 1.1%, SARS PLP yeast 17%, LASV entry inh -2%, MARV entry inh -2%, RE007 growth inh -14% and Cruzain noTriton -9%.
For Cc1ccc(/C=N/NC(=O)c2ccco2)s1 the results were NS1 function inh -15%, 2A StopGo 50%[activator], Cruzain inh Det -9.0%, SARS PLP yeast 1%, LASV entry inh 28%, MARV entry inh -3%, RE007 growth inh -13% and Cruzain noTriton -3%.
For Cc1ccc(C(=O)N/C(=C/c2cccnc2)C(=O)N2CCCCCC2)cc1 the results were NS1 function inh -5%, 2A StopGo 1%, SARS PLP yeast 0%, LASV entry inh -4%, MARV entry inh 17% and RE007 growth inh 47%.
For NS(=O)(=O)c1ccc(NC(=O)N2c3ccccc3Sc3ccccc32)cc1 the results were NS1 function inh 2%, Cruzain inh Det -2.3%, SARS PLP yeast -14%, LASV entry inh inconclusive, MARV entry inh -12%, RE007 growth inh -13% and Cruzain noTriton 1%.
COc1ccc(CN2CCCCC2C(=O)Nc2ccc(OC)c(OCC(C)C)c2)cc1OC (stereo not drawn) was read as NS1 function inh 4%, 2A StopGo -26%, Cruzain inh Det 1.4%, SARS PLP yeast 13%, LASV entry inh 18%, MARV entry inh -26%, RE007 growth inh 1% and Cruzain noTriton 4%.
`Cc1cccc(C)c1Nc1c(-c2ccsc2)nc2cccc(C)n12` gave 2A StopGo 0%, Cruzain inh Det -5.6%, LASV entry inh 4%[46.1 µM], MARV entry inh 14%[46.1 µM] and Cruzain noTriton -6%.
Screening CC(=O)c1cccc(-n2nnnc2SCC(=O)N2CCCC2)c1 returned NS1 function inh 2%, 2A StopGo -6%, Cruzain inh Det 1.3%, SARS PLP yeast 4%, LASV entry inh 1%, MARV entry inh 2%, RE007 growth inh 4% and Cruzain noTriton -1%.
O=C1CN(C(=O)c2ccc(F)c(S(=O)(=O)N3CCOCC3)c2)c2ccccc2N1 was read as NS1 function inh 0%, 2A StopGo -2%, SARS PLP yeast -2%, LASV entry inh -5%, MARV entry inh 21%[46.1 µM] and RE007 growth inh -9%.
COc1cc(C(N)=O)cc(Br)c1OCc1ccccc1 was read as NS1 function inh -42%, 2A StopGo -9%, Cruzain inh Det -2.2%, SARS PLP yeast -1%, LASV entry inh -17%, MARV entry inh 1%, RE007 growth inh -10% and Cruzain noTriton -1%.
For c1ccc(Cn2ncc3c(Nc4ccccc4)ncnc32)cc1 the results were NS1 function inh -16%, 2A StopGo -19%, SARS PLP yeast -5% and RE007 growth inh -16%.
For Cn1c(C(=O)N[C@@H](Cc2ccccc2)C(=O)O)cc2cc(F)ccc21 the results were NS1 function inh -1%, 2A StopGo 4%, SARS PLP yeast -1% and RE007 growth inh 1%.
For COc1ccc(/C=C/C(=O)N2CCN(S(=O)(=O)c3ccccc3)CC2)cc1OC the results were NS1 function inh -8%, 2A StopGo -10%, SARS PLP yeast 0% and RE007 growth inh 2%.
For CCC(=O)N1CCc2cc(Br)cc(S(=O)(=O)N3CCN(c4ccc(C(C)=O)cc4)CC3)c21 the results were 2A StopGo -13%, Cruzain inh Det 1.6%, LASV entry inh 3%[46.1 µM], MARV entry inh 7%[46.1 µM] and Cruzain noTriton 7%.
For CCc1cc(=O)oc2cc(C)cc(OCC(=O)NCCN3CCOCC3)c12 the results were NS1 function inh 13%, 2A StopGo -2%, SARS PLP yeast 10% and RE007 growth inh 0%.
Screening Cc1ccc2c(c1)Cc1c(nc(-c3ccc(F)cc3)nc1SCC(=O)N1CCCCC1)O2 returned 2A StopGo 5%, Cruzain inh Det -1.9%, LASV entry inh -7%[46.1 µM], MARV entry inh -18%[46.1 µM] and Cruzain noTriton -15%.
O=C(OCc1cccc([N+](=O)[O-])c1)c1ccc2ccccc2n1 was read as 2A StopGo -4%, SARS PLP yeast -1%, LASV entry inh inconclusive, MARV entry inh 17%[46.1 µM] and RE007 growth inh -6%.
Screening CC1(C)CC(=O)c2c(O)cc(OCc3ccc([N+](=O)[O-])cc3)cc2O1 returned NS1 function inh inconclusive, 2A StopGo 13%, Cruzain inh Det -2.5%, SARS PLP yeast 11%, LASV entry inh inconclusive, MARV entry inh 29%, RE007 growth inh -12% and Cruzain noTriton -4%.
Cc1c(OCc2ccc(C(=O)O)o2)ccc2c3c(c(=O)oc12)CCC3 was read as NS1 function inh 16%, Cruzain inh Det -19%, SARS PLP yeast 4%, LASV entry inh -25%, MARV entry inh -10%, RE007 growth inh -4% and Cruzain noTriton -26%.
Screening O=C(c1ccccc1NS(=O)(=O)c1cccs1)N1CCOCC1 returned NS1 function inh 1%, 2A StopGo -2%, Cruzain inh Det -0.4%, SARS PLP yeast -3%, LASV entry inh 23%, MARV entry inh 18%, RE007 growth inh 5% and Cruzain noTriton -1%.
`CCN(CC)S(=O)(=O)c1ccc(NC(=O)CC(NC(C)=O)c2ccccc2)cc1` (stereo not drawn) gave NS1 function inh -3%, 2A StopGo 14%, Cruzain inh Det -1.3%, SARS PLP yeast 6%, LASV entry inh 5%, MARV entry inh -1%[46.1 µM], RE007 growth inh 14% and Cruzain noTriton 2%.
Screening O=C(NCc1cccnc1)c1cc(Sc2cccc(Cl)c2)nc2ccccc12 returned NS1 function inh -15%, 2A StopGo -38%, Cruzain inh Det -6.3%, SARS PLP yeast 5%, LASV entry inh inconclusive, MARV entry inh inconclusive, RE007 growth inh 12% and Cruzain noTriton inconclusive.
For C/C(Cc1ccccc1)=N\NC(=O)CNC(=O)c1cccc(Cl)c1 the results were NS1 function inh 1%, 2A StopGo 1%, SARS PLP yeast -1%, LASV entry inh -10%, MARV entry inh -12%[46.1 µM] and RE007 growth inh 8%.
Screening O=c1c2ccccc2oc2nc(-c3ccco3)n(-c3ccccc3)c(=O)c12 returned NS1 function inh -8%, 2A StopGo 2%, Cruzain inh Det -5.2%, SARS PLP yeast -11%, LASV entry inh -1%, MARV entry inh 7%[46.1 µM], RE007 growth inh -14% and Cruzain noTriton -4%.
`CCN1C(=O)c2ccccc2S(=O)(=O)c2ccc(C(=O)NCCOC)cc21` gave NS1 function inh 4%, 2A StopGo 8%, SARS PLP yeast 3%, LASV entry inh 5%, MARV entry inh 0% and RE007 growth inh -3%.
O=C(NCC1CCN(C(=O)c2cccc([N+](=O)[O-])c2)CC1)c1cccc([N+](=O)[O-])c1 was read as NS1 function inh -1%, 2A StopGo 5%, SARS PLP yeast -1%, LASV entry inh -2%, MARV entry inh 13%[46.1 µM] and RE007 growth inh -10%.
CCC(CC)NC(=O)COC(=O)c1ccc(NS(=O)(=O)c2ccc3c(c2)OCCO3)cc1 was read as NS1 function inh -7%, 2A StopGo 5%, Cruzain inh Det -2.9%, SARS PLP yeast 19%, LASV entry inh 10%, MARV entry inh 25%, RE007 growth inh 4% and Cruzain noTriton -2%.
`Cc1ccc2nc(SCC(=O)NCc3ccc(F)cc3)[nH]c2c1` gave NS1 function inh 1%, 2A StopGo -27%, SARS PLP yeast 0% and RE007 growth inh 8%.
`CCCC(C)C(=O)Nc1ccc2c(c1)OCCO2` (stereo not drawn) gave NS1 function inh 5%, 2A StopGo 0%, Cruzain inh Det -1.8%, SARS PLP yeast 1%, LASV entry inh 0%, MARV entry inh 25%, RE007 growth inh 5% and Cruzain noTriton -9%.
O=C(O)c1ccc(-n2nc(C(F)(F)F)c3c2CCCC3)cc1 was read as NS1 function inh -41%&-73%, 2A StopGo 34%&5%[activator], Cruzain inh Det 1.5%, SARS PLP yeast -1%&-2%, LASV entry inh -1%, MARV entry inh inconclusive, RE007 growth inh 8%&14% and Cruzain noTriton 5%.
`Nc1nonc1-n1nnc(C(=O)N/N=C/c2ccc(OCc3cccc(Cl)c3)cc2)c1CN1CCCCC1` gave NS1 function inh -48%, 2A StopGo 0%, SARS PLP yeast -2% and RE007 growth inh -5%.
CCNc1nc(NCC)n2c(SCC(=O)Nc3ccc(C)cc3Br)nnc2n1 was read as 2A StopGo -10%, SARS PLP yeast 2%, LASV entry inh 0%[46.1 µM], MARV entry inh -7%[46.1 µM] and RE007 growth inh 1%.
`COc1ccc(OCC(=O)Nn2c(-c3ccc(C)cc3)nc3ccccc3c2=O)cc1` gave NS1 function inh 9%, 2A StopGo inconclusive, Cruzain inh Det -6.9%, SARS PLP yeast 22%, LASV entry inh 2%, MARV entry inh -2%, RE007 growth inh -11% and Cruzain noTriton 11%.
Screening Fc1ccccc1-c1nc(-c2ccc(Cl)cc2)no1 returned 2A StopGo 44%[activator], LASV entry inh -22%, MARV entry inh inconclusive and RE007 growth inh -4%.
`Cc1ccc(S(=O)(=O)N(C)CC(=O)NC2CC(C)(C)NC(C)(C)C2)cc1` gave NS1 function inh 2%, 2A StopGo 18%, Cruzain inh Det 2.3%, SARS PLP yeast 0%, LASV entry inh 2%, MARV entry inh 1%, RE007 growth inh -4% and Cruzain noTriton -14%.
Screening CCNc1ccc(S(=O)(=O)N(C)C)cc1NCC(=O)Nc1ccc(Br)cc1F returned NS1 function inh -10%, 2A StopGo inconclusive, Cruzain inh Det -0.9%, SARS PLP yeast 3%, LASV entry inh -6%, MARV entry inh inconclusive, RE007 growth inh -11% and Cruzain noTriton 25%.
